CDC25B CDK2 inh = primary biochemical HTRF screen for blockers of M-phase inducer phosphatase 2 binding to CDK2/cyclin A; z-score (concentration not given with the values); 94,000 tested, 0.72% active; P30305+P24941; HTRF CDC25B-CDK2/CyclinA binding, anti-His/anti-Flag; stronger effect = higher value;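 further: score is relative to mean and SD of negative controls; strong numbers were not always called active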
TAR Tat displ = TAR RNA-Tat peptide displacers, HIV-1, primary screen, biochemical, FRET, FAM/TAMRA-labeled Tat; HIV-1 TAR RNA, Tat peptide displacement FRET; stronger effect = higher value; AID 1259389, 2018; z-score (test concentration not listed); 100,000 tested, 0.6% active;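 further: score is relative to mean and SD of negative controls; some compounds called inactive have numbers as strong as hits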
* = called active by the depositor; x = not tested or not shown.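 How the source made its calls: active means z-score from 3 up in half or more of its runs; inactive means the rest.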

SMILES	CDC25B CDK2 inh	TAR Tat displ
CCOCCCNc1nc2c(S(=O)(=O)c3ccc(Br)cc3)nnn2c2ccsc12	x	-1.2
COc1cc(Cl)c(NS(=O)(=O)c2ccc(CN3C(=O)c4cccnc4C3=O)s2)c(OC)c1	x	-0.35
O=c1cc(-c2ccccc2)c2ccccc2[nH]1	-0.04	-0.74
CC1CN(S(=O)(=O)c2ccc(CN3C(=O)c4cccnc4C3=O)cc2)c2ccccc2S1 (configuration not stated)	x	2.1
O=S(=O)(c1ccc(-c2noc(COc3ccc(F)cc3)n2)cc1)N1CCCCC1	x	1.6
COC(=O)c1cc2ccsc2n1Cc1nc(-c2cccc(Br)c2)oc1C	-1.3	0.84
COc1ccc(S(=O)(=O)NCCS(=O)(=O)N2CCN(c3ccc(F)cc3)CC2)cc1	x	0.48
COc1ccc(OC)c(CNS(=O)(=O)c2cc(-c3onc(C)c3C)ccc2C)c1	x	0.31
Cc1cc2oc3c(c(=O)c2cc1C)C(c1ccccc1F)N(CCCN(C)C)C3=O (configuration not stated)	-2	1.1
CCOCCOC(=O)C1=C(C)NC(=O)NC1c1cccc(Cl)c1 (configuration not stated)	-0.94	x
O=C(Cc1ccccc1)NO	x	-0.28
O=C(NCCN1CCOCC1)C1CCCN(c2nc3cccnc3s2)C1 (configuration not stated)	x	-1.5
Cc1cccc(C(=O)Nc2c(C(=O)N(Cc3ccco3)CC3CCCO3)oc3ccccc23)c1 (configuration not stated)	x	0.72
C=CCSc1nc2c(c(=O)[nH]1)C(c1ccc(OC(C)C)cc1)CC(=O)N2 (configuration not stated)	-2	0.61
Cc1ccc(S(=O)(=O)N2CCN(S(=O)(=O)c3cc4c5c(c3)CCN5C(=O)CC4)CC2)cc1	x	-0.55

Sorted by formula weight (lowest first): some entries from above.
SMILES	CDC25B CDK2 inh	TAR Tat displ
Cc1cc2oc3c(c(=O)c2cc1C)C(c1ccccc1F)N(CCCN(C)C)C3=O (configuration not stated)	-2	1.1
CC1CN(S(=O)(=O)c2ccc(CN3C(=O)c4cccnc4C3=O)cc2)c2ccccc2S1 (configuration not stated)	x	2.1
CCOCCCNc1nc2c(S(=O)(=O)c3ccc(Br)cc3)nnn2c2ccsc12	x	-1.2

Continuation.
SMILES	CDC25B CDK2 inh	TAR Tat displ
N/C(Cc1cccc2ccccc12)=N\OC(=O)N1CCOCC1	-0.32	x
Cc1ccc2[nH]c(C)c(C(O)CN3CCC(Cc4ccccc4)CC3)c2c1 (configuration not stated)	-1.9	-1.8
CC(=O)Oc1ccc2nc(-c3ccc(Br)cc3)oc(=O)c2c1	-0.95	x
O=C(CSc1nc2ccsc2c(=O)n1CC1CCC(C(=O)O)CC1)c1ccc(F)cc1 (configuration not stated)	x	1.5
COC(=O)/C=C(/Nc1cc(OC)ccc1OC)C(=O)OC	-1.2	x
CC1(C(=O)NC2CCCCC2)Cn2c(cc3sccc32)C(=O)N1CC1CCCO1 (configuration not stated)	-2.5	1.6
CCOc1ccc(-n2c(C)c(C)c3c2ncn2nc(-c4ccncc4)nc32)cc1	-2.3	-0.47
COc1ccc(C2NC(=O)c3c2c2ccccc2n3C)cc1 (configuration not stated)	-2	0.16
O=c1c2ccccc2nc2c3ccccc3c(SCc3ccccc3)nn12	0.45	x
COC(=O)c1c(NC(=O)c2nc(SC)ncc2Cl)sc2c1CCC2	0.77	1.6
Cc1cc(C)c2[nH]c(CSc3nnc(-c4cccs4)n3C)cc(=O)c2c1	x	-1.3
Cc1cc(=O)nc2c3ccccc3n(CC(=O)N3CC(C)CC(C)C3)n12 (configuration not stated)	-1.4	1.3
c1ccc2c(CN3CCN(Cc4c[nH]c5ccccc45)CC3)c[nH]c2c1	0.2	x
CCN(C(=O)c1noc2c1CSc1ccccc1-2)c1ccccc1	-0.38	0.86
CCOc1ccc2c(c1)C(=O)C(c1cc(=O)c3ccccc3[nH]1)C2=O (configuration not stated)	-0.31	0.38

Part of the list above, as a markdown table.
| smiles | CDC25B CDK2 inh | TAR Tat displ |
| --- | --- | --- |
| CCOc1ccc(-n2c(C)c(C)c3c2ncn2nc(-c4ccncc4)nc32)cc1 | -2.3 | -0.47 |
| COc1ccc(C2NC(=O)c3c2c2ccccc2n3C)cc1 (configuration not stated) | -2 | 0.16 |
| O=c1c2ccccc2nc2c3ccccc3c(SCc3ccccc3)nn12 | 0.45 | x |
| COC(=O)c1c(NC(=O)c2nc(SC)ncc2Cl)sc2c1CCC2 | 0.77 | 1.6 |
| Cc1cc(C)c2[nH]c(CSc3nnc(-c4cccs4)n3C)cc(=O)c2c1 | x | -1.3 |
| Cc1cc(=O)nc2c3ccccc3n(CC(=O)N3CC(C)CC(C)C3)n12 (configuration not stated) | -1.4 | 1.3 |
| c1ccc2c(CN3CCN(Cc4c[nH]c5ccccc45)CC3)c[nH]c2c1 | 0.2 | x |

(further entries)
SMILES	CDC25B CDK2 inh	TAR Tat displ
O=C1C2=C(Nc3[nH]c(=O)[nH]c(=O)c3C2c2ccc(F)cc2)c2ccccc21 (configuration not stated)	-0.67	-6.6
COc1ccc(C)cc1NS(=O)(=O)c1cc(-c2onc(C)c2C)ccc1C	x	0.38
O=C(C1CCN(c2ncnc3c2sc2cccc(F)c23)CC1)N1CCCCCC1	-0.79	x
COC(=O)c1c(NC(=O)c2nc(SC(C)C)ncc2Cl)sc2c1CCCC2	-2.1	-0.45
Cc1ccc2oc(=O)n(CCNC(=O)Nc3ccc(C)c(F)c3)c2c1	-0.21	1.3
Cc1nn(CC(=O)NC(C)C)c(=O)c2cc3occc3n12	0.4	0.56
COC(=O)Cn1ncc2ccccc2c1=O	-0.85	0.48
N=C1C(c2nc3ccccc3s2)=C(O)CN1c1ccc(Cl)cc1F	-1.1	1.5
CN1CCOc2cc(S(=O)(=O)N3CCCC3c3ccc(F)cc3)ccc21 (configuration not stated)	-0.57	x
Cc1ccccc1C(=O)Nc1cnc2oc(-c3ccc(C(C)C)cc3)nn2c1=O	x	0.84
Cc1cc(C)n(Cc2c(C(=O)N3CCCCC3)noc2C)n1	x	1.5
COc1cc(C2CC(=O)Nc3c2c(C)nn3-c2ccc3nnc(C)n3n2)ccc1O (configuration not stated)	x	1.2
O=C(c1cnn2c(C(F)(F)F)cc(-c3ccco3)nc12)N1CCCc2ccccc21	-1.7	-0.71
CN(Cc1ccccc1)S(=O)(=O)c1ccc2c(c1)CCN2C(=O)NC1CCCCC1	x	-0.52
COc1ccc(OC)c(NC(=O)c2nn(-c3cccc(Cl)c3)ccc2=O)c1	0.11	1.4
Cn1cnnc1Sc1nc2c(c(=O)n(C)c(=O)n2C)n1Cc1cc2c(cc1Cl)OCO2	-0.5	x
Cn1c(=O)c(=O)n(C)c2cc(S(=O)(=O)NCC3COc4ccccc4O3)ccc21 (configuration not stated)	-1.4	-1.5
CC(C(=O)NCc1ccc2c(c1)OCO2)n1ncn2cccc2c1=O (configuration not stated)	-1.2	0.89
CN(C)CCNc1c(N)c(=O)oc2ccccc12	-1.5	x
O=C(CCN1C(=O)/C(=C/c2ccc3c(c2)OCO3)SC1=S)Nc1ccc(-c2ccccc2)cc1	-2.5	x
O=C(NCc1ccc(F)cc1)c1cnn2c1NC(c1cccs1)CC2C(F)(F)F (configuration not stated)	-1.8	0.01
O=C1CC(N2CCN(c3ccccc3Cl)CC2)C(=O)N1c1ccccc1 (configuration not stated)	-0.67	0.21
CCCCC1CCC(C(=O)Nc2cc(=O)n(C)c(=O)n2C)CC1 (configuration not stated)	x	1.7
CCOC(=O)CNC(=O)C1(C)Cn2nc(C(=O)OCC)cc2C(=O)N1C1CC1 (configuration not stated)	x	-0.07
COc1ccc(OC)c(CNC2=C(c3ccccc3)C(=O)c3ccccc32)c1	0.29	-5.7
COc1ccc(OCCSc2nnc3ccc4ccccc4n23)cc1	0.19	1.4
CCC(=O)Nc1nc2cc(NC(=O)NCC(C)C)ccc2s1	x	0.41
COCCNc1oc2c(c1-c1ccc(Br)cc1)c(=O)n(C)c(=O)n2C	x	0.81
Cc1ccc2c(c1)C(O)(CC(=O)c1ccc3c4c(cccc14)CC3)C(=O)N2 (configuration not stated)	-1.4	x
CCc1cc(C(=O)NC(C)C)no1	-0.05	0.51
CCOc1ccc2ncc(S(=O)(=O)c3ccccc3)c(Nc3ccc(OC)c(OC)c3)c2c1	-2.8	1.1
CCN(CC)S(=O)(=O)c1ccc2c(c1)CC(C(=O)NCc1c(C)nn(C)c1C)N2C(C)=O (configuration not stated)	x	1.9
Cc1cccc2sc(NC(=O)NC3CC(=O)N(c4ccc5c(c4)OCCO5)C3)nc12 (configuration not stated)	x	1.5
O=c1c(O)c(-c2cc(O)c(O)c(O)c2)oc2cc(O)ccc12	x	19*
Oc1ccc2ccccc2c1CN1CCN(c2ccccc2F)CC1	-0.18	-0.23
CCOC(=O)Cn1c(C2CC(=O)N(C(C)C)C2)nc2ccccc21 (configuration not stated)	-1.7	-1
N#CC(C(=O)c1ccco1)c1nc2ccccc2[nH]1 (configuration not stated)	0.15	x
CCOC(=O)c1ccc2[nH]cc(S(=O)(=O)c3ccc(C)cc3)c(=O)c2c1	-1.6	1.5
CC(C)Cc1ccc(C(C)C(N)=O)cc1 (configuration not stated)	-2.9	x
Cc1nc(-c2ccc(C)c(S(=O)(=O)Nc3ccc(C)c(F)c3)c2)cs1	x	0.72
Cc1[nH]nc(-c2ccc(S(=O)(=O)Nc3ccc(F)cc3)s2)c1C	x	0.97
Cc1ccc2nc(NC3=NCN(C4CCCCC4)CN3)nc(C)c2c1	1.8	0.08
CCOC(=O)c1c[nH]c2ccc(Cl)cc2c1=O	-0.87	0.98
CC1=C(C(=O)OC2CCCC2)C(c2cccc(Cl)c2)C2=C(CC(C)(C)CC2=O)N1 (configuration not stated)	-0.9	0.97
CCc1nn(CC(=O)OC)c(=O)c2cc3occc3n12	2.2	0.64
CCOC(=O)c1c(C)[nH]c(C)c1S(=O)(=O)N1CCC(C(=O)NCc2ccco2)CC1	x	-1.6
Cc1c(-c2ccccc2)[n+](=O)c2c(n1[O-])CCC2	-0.31	x
Nc1nc(SCCCC(=O)NCCO)nc2sc3c(c12)CCCC3	1.4	1.2
CCCNC(=O)Cn1cc2c(n1)-c1c(oc(C(=O)N3CCOCC3)c1C)CC2	x	1.6
CCOC(=O)C1CCN(S(=O)(=O)c2ccc3[nH]c(=O)oc3c2)CC1	-1.6	1.6
COc1ccc(OC)c(S(=O)(=O)Nc2ncn(Cc3ccc(Cl)cc3)n2)c1	2.5	1.6
CCC(C)NC(=O)c1ccc(NC2=NC3CS(=O)(=O)CC3S2)cc1 (configuration not stated)	x	5.3
CCC(C)(C)NC(=O)CN(C)S(=O)(=O)c1ccc2c(c1)C(C)(C)C(=O)N2C	x	0.71
CCOC(=O)C1=C(O)C(=O)N(Cc2ccco2)C1	-0.62	x
CC1CCc2onc(C(=O)NCc3cccs3)c2C1 (configuration not stated)	x	0.7
Cc1oc2cc(O)ccc2c(=O)c1-c1nc2ccccc2n1C	-1.2	0.32
CCc1ccc(NC(=O)Nc2cc3sccc3n2C)cc1	2.1	-7.7
CC(C)(C)c1ccc(S(=O)(=O)N(C(=O)c2ccncc2)c2ccc3oc(=O)sc3c2)cc1	-0.62	0.8
COc1cccc(NC2SC(=O)N(c3ccccc3)C2=O)c1 (configuration not stated)	-1.8	1.7
c1cc2nncn2nc1N1CCCCC1	-1.7	x
Remaining list, next part
SMILES	CDC25B CDK2 inh	TAR Tat displ
COc1ccc(C2=NS(=O)(=O)N(C)C(C(=O)N3CCCC3)=C2)cc1	-1.4	1.5
CCc1ccccc1N1CN(Cc2ccco2)CNC1=S	-1.2	x
COc1ccc(-c2cc(=O)n3[nH]c(SCc4ccccc4)nc3n2)cc1OC	-0.59	-2.4
Cc1n[nH]c(=O)c2c1nnn2Cc1ccccc1Cl	-1.4	-0.87
CCOc1ccccc1-c1nn2c(C(C)(C)C)nnc2s1	0.57	0.56
Cn1c(=O)c2c(SCC(=O)c3ccccc3)nc(-c3ccco3)nc2n(C)c1=O	-2.3	x
O=C1c2ccccc2C(=O)N1CNc1ccc(N2CCOCC2)cc1	-2.2	x
CCc1ccc(S(=O)(=O)N2CCN(c3cc(N4CCCC4)nc(C)n3)CC2)cc1	-0.72	-0.52
CCCCNC(=O)CCc1c(C)nc2nc(NCc3cccs3)[nH]n2c1=O	-0.66	0.3
Cc1ccc(CNc2nc3c(S(=O)(=O)c4ccccc4)nnn3c3ccsc23)cc1	x	1.1
CCc1nnc(NC(=O)Cn2ncc3c([nH]c4ccccc43)c2=O)s1	x	1.3
Cc1cc(=O)nc2c3ccccc3n(CC(=O)Nc3ccccc3Cl)n12	1.3	1.6
Cn1c(SCC(=O)Nc2ccc(Br)cc2)nc2c(c1=O)SCC2	-1.9	2.6
CN1C(=O)Cc2cc(S(=O)(=O)CCC(=O)N3CCN(c4ccc(F)cc4)CC3)ccc21	x	-2.9
Cc1ccc(-n2cc(-c3ccc4c(c3)OCO4)[nH]c2=S)cc1	-1.5	x
O=C(CSc1ccsc1[N+](=O)[O-])NCc1ccc(F)cc1	x	-0.23
O=C(Nc1ccc(S(=O)(=O)N2CCCc3ccccc32)cc1)N1CCCC1	x	0.27
N#Cc1cc2c(nc1SC1CC(=O)N(c3ccccc3)C1=O)CCC2 (configuration not stated)	-0.67	x

Assay outcomes (PubChem BioAssay)
